KCNQ2 pot = potentiators of rat KCNQ2 potassium channel; Potassium voltage-gated channel subfamily KQT member 2 (Rattus norvegicus), O88943; CHO-K1 KCNQ2, FluxOR thallium flux fluorescence; hits give high values; B-score at 10 µM; 310,000 compounds, 0.54% hits; AID 2239, 2010;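 active = fluorescence ratio B-score at least 3 SD of library B-scores, with initial fluorescence B-score within 3 SD, cut at about 5.3 in these data; same plate scores as AID 2156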;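 note: B-score of peak minus minimum over baseline fluorescence ratio after K+ and Tl+ stimulus; positive B-score means potentiation of KCNQ2 with more thallium influx and brighter signal; only the inactives scoring about 0 or higher are listed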
Target sequence (O88943 whole entry, looked up): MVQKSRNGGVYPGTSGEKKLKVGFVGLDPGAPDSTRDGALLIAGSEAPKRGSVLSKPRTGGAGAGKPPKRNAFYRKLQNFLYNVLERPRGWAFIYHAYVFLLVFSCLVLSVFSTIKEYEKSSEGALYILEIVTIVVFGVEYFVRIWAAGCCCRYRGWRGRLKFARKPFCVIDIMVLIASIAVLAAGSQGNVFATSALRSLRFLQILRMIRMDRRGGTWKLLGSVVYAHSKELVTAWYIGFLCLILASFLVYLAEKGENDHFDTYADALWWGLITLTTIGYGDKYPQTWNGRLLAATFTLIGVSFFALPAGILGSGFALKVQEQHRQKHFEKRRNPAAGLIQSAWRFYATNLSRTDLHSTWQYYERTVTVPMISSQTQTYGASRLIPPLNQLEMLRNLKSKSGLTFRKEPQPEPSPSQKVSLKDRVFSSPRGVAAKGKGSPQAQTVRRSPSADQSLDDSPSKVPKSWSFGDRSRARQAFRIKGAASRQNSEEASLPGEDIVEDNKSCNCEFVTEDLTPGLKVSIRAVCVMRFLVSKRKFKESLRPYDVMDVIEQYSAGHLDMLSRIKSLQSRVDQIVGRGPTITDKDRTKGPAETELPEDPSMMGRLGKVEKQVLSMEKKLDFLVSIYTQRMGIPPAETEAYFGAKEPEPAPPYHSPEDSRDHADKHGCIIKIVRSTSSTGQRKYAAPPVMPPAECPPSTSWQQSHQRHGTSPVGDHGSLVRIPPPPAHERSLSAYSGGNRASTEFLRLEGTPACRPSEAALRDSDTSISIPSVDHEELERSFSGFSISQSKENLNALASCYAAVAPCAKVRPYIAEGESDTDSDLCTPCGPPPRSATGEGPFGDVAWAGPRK
KCNQ2 pot baseline = further read-out of KCNQ2 pot, marked with its call; B-score; compound at 10 µM; measured here: initial fluorescence intensity artifact check;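 brightness before thallium and not channel activity; 0 = typical well and far values either way flag optical interference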
* = called active by the depositor. An excerpt; rates above refer to the full screens.

SMILES | KCNQ2 pot | KCNQ2 pot baseline
O=c1cccc2n1CC1CC2CN(Cc2c(Cl)cccc2Cl)C1 (stereo not given) | 2.9 | -2.2
COC(=O)CC1=C(C(=O)OC)C2(C(=O)Nc3c(C)cccc32)C(C#N)=C(N)O1 (stereo not given) | 0.26 | 0.02
Fc1ccc(N2CCN(Cc3ccc4c(c3)OCO4)CC2)cc1 | 0.42 | 0.19
Cc1cc(=O)oc2cc3c(cc12)CCCN3 | 1.2 | -0.17
C(=NC12CN3CN(CN(C3)C1)C2)c1cccnc1 | 0.55 | -1.1
COC(=O)Cn1cc(C(=O)c2ccccc2F)c2ccccc21 | 0.83 | 1.4
O=C1C2CCCN2C(c2ccccc2)N1c1ccccn1 (stereo not given) | 1.2 | 0.78
COC(=O)C1=C(c2ccc(S(C)(=O)=O)cc2)C[C@@H]2CC[C@H]1N2C(=O)N1CCCC1 | 1.1 | -1.9
COc1ccc(CN2C(=O)NC(=O)/C(=C\c3ccc(OC)c(OC)c3OC)C2=O)cc1 | 0.06 | 0.36
COc1ccc(-n2c(O)c(C(C)=NC3CC3)c(=O)[nH]c2=O)cc1 | 0.49 | 0.15
Cn1cccc1CNCCc1ccc(F)cc1 | 0.4 | -0.84
COc1ccc(OCC(=O)N2CCN(Cc3nc4cc([N+](=O)[O-])ccc4n3C)CC2)cc1 | 0.16 | -0.29
COC(=O)[C@]12OC[C@]34C([C@@H](O)[C@@H]1O)[C@]1(C)CC(=O)C(O)=C(C)[C@@H]1C[C@H]3OC(=O)[C@H](O)[C@@H]24 (stereo not given in full) | 0.29 | -1.7
Cn1c(=O)[nH]c2nncnc2c1=O | 1.4 | 0.39
O=C(c1ccc(F)cc1Cl)N1CCC2(CC1)OCCO2 | 0.64 | -0.38
COc1cccc(N(C(C)=O)C2=NCCCS2)c1 | 0.41 | -2.8
CCN(CC)CCCOC(=O)C(OC(C)C)(c1ccccc1)c1ccccc1 | 0.28 | 2.6
CCOC(=O)c1cc(CC)sc1/N=C/c1c(O)[nH]c(=S)[nH]c1=O | 0.86 | -0.2
COc1ccc(N=Cc2c(O)n(-c3ccc(C)cc3)c(=O)[nH]c2=O)cc1 | 0.25 | 0.79
COc1ccc(C(=O)Cn2c(NCCCl)nc3ccccc32)cc1 | 1.6 | -0.18
O=C1NC(=O)N(c2ccccc2)C(=O)/C1=C/c1ccc([N+](=O)[O-])s1 | 0.71 | -0.36
COc1ccc(C(=O)O/N=C(/C(N)=O)P(=O)(OC(C)C)OC(C)C)cc1 | 6.4* | -0.26*
O=C(O)C1CN2CCC1CC2 (stereo not given) | 0.75 | 0.31
CCC(=NCCC1=CCCCC1)c1c(O)[nH]c(=O)[nH]c1=O | 0.12 | 0.03
O=C(CCC(=O)N1C[C@H]2C[C@@H](C1)c1cccc(=O)n1C2)NCc1cccc(C(F)(F)F)c1 | 0.36 | 0.06

The final four records of the part before come first, to join the parts:
SMILES | KCNQ2 pot | KCNQ2 pot baseline
COc1ccc(C(=O)O/N=C(/C(N)=O)P(=O)(OC(C)C)OC(C)C)cc1 | 6.4* | -0.26*
O=C(O)C1CN2CCC1CC2 (stereo not given) | 0.75 | 0.31
CCC(=NCCC1=CCCCC1)c1c(O)[nH]c(=O)[nH]c1=O | 0.12 | 0.03
O=C(CCC(=O)N1C[C@H]2C[C@@H](C1)c1cccc(=O)n1C2)NCc1cccc(C(F)(F)F)c1 | 0.36 | 0.06
Cc1sc2ncnc(N3CCC(C(=O)Nc4ccc(C#N)c(Cl)c4)CC3)c2c1C | 0.03 | 0.16
CCCCCc1cc(O)c2c3c(c(=O)oc2c1)CN(C)CC3 | 0.26 | 0
OC(c1ccccc1)(c1ccccc1)C1CN2CCC1CC2 (stereo not given) | 0.29 | -0.47
COc1ccc(C(=O)C2CCCN(C3CSCCSC3)C2)cc1OC (stereo not given) | 0.03 | -0.22
c1ccc2c(c1)Nc1ccccc1S2 | 1.1 | 1.1
Cc1ccc(NC(=O)CSc2nnc([C@@H](N)Cc3c[nH]c4ccccc34)o2)c(C)c1 | 1.1 | 0.44
O=C1C=C2C=C[C@H]3C[C@]2(O1)[C@@H]1CCCCN13 | 0.23 | -1.8
O=C(Nc1cccc(Br)c1)c1c(O)c2c(n(Cc3ccccc3)c1=O)CCCC2 | 0.67 | -0.77
CN1CCC(C)(O)C2CCCCC21 (stereo not given) | 1.1 | -1.3
O=C(Nc1ccc(F)cc1)OC1CN2CCC1CC2 (stereo not given) | 1.4 | 0.25
O=C1Nc2ccccc2/C1=C/c1nc2ccccc2c(=O)n1-c1ccc(O)cc1 | 0.1 | -0.64
CCOC(=O)c1c(N)n(Cc2ccccc2)c2nc3ccccc3nc12 | 1.3 | -0.07
NCC1(c2ccc3c(c2)OCCO3)CCCC1 | 1.7 | 0.39
CC1CC(NC(=O)C2C3CCC(O3)C2C(=O)O)CC(C)(C)C1 (stereo not given) | 0.91 | -1.3
COP(=O)(NC(=O)C(Cl)(Cl)Cl)OC | 2.1 | -0.39
CCN(CC)C(=O)N[C@H]1C[C@@H]2c3cccc4[nH]cc(c34)C[C@H]2N(C)C1 | 0.88 | -1.6
Cc1cc([P+](=O)O)c(C)n1-c1ccc(Br)cc1 | 1.7 | 1.3
CC1CN=C(NC(C)c2ccccc2)S1 (stereo not given) | 0.15 | 0.8
CCOc1ccc(N2C(=O)NC(=O)/C(=C\c3cc(OC)c(OC)cc3[N+](=O)[O-])C2=O)cc1 | 0.99 | -0.02
O=c1[nH]c(=O)n(-c2cccc3ccccc23)c(O)c1/C=N/N1CCCCC1 | 0.17 | -0.57
CCCCn1c(O)c(C(C)=Nc2c(C)n(C)n(-c3ccccc3)c2=O)c(=O)[nH]c1=O | 0.06 | 0.65
COc1ccc(Br)cc1CN1CCN(CCO)CC1 | 0.85 | -1.1
CCOc1ccc(CC2C(=O)NC(=O)N(c3ccc(CC)cc3)C2=O)cc1 (stereo not given) | 2 | -0.01
CN1CCN(C(=O)COc2ccc(S(=O)(=O)NC3CCCCC3)cc2Cl)CC1 | 0.47 | 1.1
CN1CN(c2cccc([N+](=O)[O-])c2)CN=C1N[N+](=O)[O-] | 0.48 | 0.95

As entered above.
`CCOc1ccc(CC2C(=O)NC(=O)N(c3ccc(CC)cc3)C2=O)cc1` (stereo not given) – KCNQ2 pot baseline: -0.01
`CCCCn1c(O)c(C(C)=Nc2c(C)n(C)n(-c3ccccc3)c2=O)c(=O)[nH]c1=O` – KCNQ2 pot: 0.06

Further results
SMILES | KCNQ2 pot | KCNQ2 pot baseline
C=C1[C@H]2C[C@H]3[C@H]4N5C[C@]6(C)CCC[C@]47[C@H]([C@H]2O)[C@]3(C[C@]5(O)[C@H]67)[C@@H]1O | 1.2 | 0.13
COc1ccc(CC(=O)N(CCN(C)C)CC2CCCN(Cc3ccccc3F)C2)cc1 (stereo not given) | 0.7 | -0.95
O=C(c1cccnc1)c1cc2ccccc2[nH]1 | 2.1 | -0.02
O=C1NC(=O)N(CCNc2ncc(C(F)(F)F)cc2Cl)C(=O)C1Cc1ccc(Cl)cc1 (stereo not given) | 1.8 | -3.4
COc1cc(OC)cc(C2(C#N)CCN(C)CC2)c1 | 0.82 | -0.01
CC1(C)C2([N+](=O)[O-])CN3CC1([N+](=O)[O-])CN(C2)C3c1cccnc1 (stereo not given) | 0.02 | -0.46
Cc1c(Cl)cccc1N1C(=O)NC(=O)/C(=C\c2cc(C)n(-c3cccc(C(=O)O)c3C)c2C)C1=O | 1.2 | 0.43
O=C1Nc2ccccc2C1Cc1nc2ccccc2c(=O)n1-c1ccccc1 (stereo not given) | 1.4 | -2.5
CC(=O)N1CC(=O)Nc2ccc(Br)cc2C1c1ccc(F)cc1 (stereo not given) | 0.47 | -0.02
CC1(C)NC(=O)[C@H]2CCCN21 | 0.01 | 1
CN(C(=O)CN1CC=C(c2ccccc2)CC1)c1c(N)n(Cc2ccccc2)c(=O)[nH]c1=O | 1.9 | -1.2
CN1CCN(C(=O)COc2ccc3ccccc3c2)CC1 | 0.44 | 2.5
O=C(Cn1nc(-c2ccc(Cl)cc2)ccc1=O)N1CCC2(CC1)OCCO2 | 1.7 | -0.45
COc1ccc(-c2nn(CCC#N)cc2C(=O)Nc2ccccc2)cc1OC | 0.44 | 0.48
Clc1cccc(Cl)c1C1N2CCCN12 (stereo not given) | 1.5 | 0.01
O=C1C(Cc2cnc[nH]2)NC(=S)N1c1ccccc1 (stereo not given) | 0.01 | -1.6
COc1ccc(C(O)CNC(C)C)c(F)c1OC (stereo not given) | 0.68 | 0.06
CC(=O)Nc1ccccc1C(=O)OCC(=O)c1ccccc1Cl | 1.7 | -3
CCOC(=O)C1CCN(/C=C2/C(=O)NC(=S)N(c3ccccc3F)C2=O)CC1 | 0.37 | 0.23
COc1ccccc1OCC(=O)N1CCCC(N(C)Cc2ccccc2)C1 (stereo not given) | 1 | 1.2
COCCn1cc(C(=O)N2CCC3(CC2)OCCO3)c2c3ccccc3n(C)c2c1=O | 0.59 | -1.5
Cc1cccc(N2C(=O)NC(=O)/C(=C\c3ccc(N4CCOCC4)cc3)C2=O)c1 | 0.28 | -0.98
O=C(OCCN1CCOCC1)C1(c2ccccc2)CCCC1 | 2.8 | -1.9
C=CCn1c(O)c(N=Nc2c(C)n(C)n(-c3ccccc3)c2=O)c(=O)[nH]c1=S | 1.7 | -0.78
CCC(=NCc1ccco1)c1c(O)n(Cc2ccccc2)c(=O)[nH]c1=O | 1.9 | 0.57

Record cards (already shown).
Cc1cc(=O)oc2cc3c(cc12)CCCN3 in the list: KCNQ2 pot: 1.2; KCNQ2 pot baseline: -0.17
CN1CCN(C(=O)COc2ccc3ccccc3c2)CC1 in the list: KCNQ2 pot: 0.44; KCNQ2 pot baseline: 2.5
O=C1NC(=O)N(CCNc2ncc(C(F)(F)F)cc2Cl)C(=O)C1Cc1ccc(Cl)cc1 (stereo not given) in the list: KCNQ2 pot: 1.8; KCNQ2 pot baseline: -3.4

(next part)
SMILES | KCNQ2 pot | KCNQ2 pot baseline
COc1ccc(N2CCN(C(CNC(=O)Oc3ccccc3)c3cccnc3)CC2)cc1 (stereo not given) | 0.25 | 0.98
CCCCCCN=C(CC)c1c(O)n(CCCC)c(=O)[nH]c1=O | 0.03 | 1.6
Cc1ccc2c(c1)CC1(CN2C)C(=O)NC(=O)N(c2ccccc2C)C1=O (stereo not given) | 1.1 | 0.55
Cc1cc(S(N)(=O)=O)ccc1N=Cc1c(O)n(-c2ccccc2)c(=O)[nH]c1=O | 0.11 | -0.42
CN1CCN2c3ccccc3CC3(C(=O)N(C)C(=O)N(C)C3=O)C2C1 (stereo not given) | 0.55 | 2.5
CN(C)C(=O)CSc1nnc([C@@H](N)Cc2ccccc2)o1 | 0.56 | 0
CCOC(=O)C1=Nc2ccccc2/C1=C\c1c(O)n(C)c(=O)n(C)c1=O | 1.8 | -0.1
COCCNC(=O)CN1C(=O)CN=C(c2ccccc2)c2ccccc21 | 0.81 | -0.01
CCOC(=O)CCN=Cc1c(O)n(-c2ccc(Br)cc2)c(=O)[nH]c1=O | 1.2 | 0.73
CC(=Nc1ccccc1N)c1c(O)n(C)c(=O)n(C)c1=O | 0.71 | -2.1
CCOc1ccc(-n2c(O)c(C=NCCCn3ccnc3)c(=O)[nH]c2=O)cc1 | 0.01 | 1.6
CCC1(C)CN(S(=O)(=O)OCC(Cl)(Cl)Cl)C(=O)N1 (stereo not given) | 0.01 | -1.9
COP(=O)(OC)C1(O)C(=O)Nc2ccc(Br)cc21 (stereo not given) | 0.04 | 0.03
O=c1[nH]c(=O)n(-c2ccccc2)c(O)c1/C=C1/C(c2ccccc2)=Nc2ccccc21 | 3.6 | -0.92
Cc1nc2cc(F)ccc2n1C1CCN(Cc2nnnn2CCc2ccccc2)CC1 | 1 | -0.97
CCN1CCN(C(c2cccs2)C(C)NC(=O)Oc2ccccc2)CC1 (stereo not given) | 0.07 | 1.3
CCOc1ccccc1Oc1coc2cc(OC(=O)N(C)C)ccc2c1=O | 1 | -0.04
NP(=O)(OCCCc1ccccc1)Oc1ccccc1 (stereo not given) | 0.32 | -0.1
CN(C)C(=O)Oc1cccc(NC(=O)N2CCOCC2)c1 | 0.67 | 0.37
CCN1CCN(Cc2cc(OC)c(OC)cc2[N+](=O)[O-])CC1 | 0.07 | 0.79
COc1ccc(N=Cc2c(O)n(C)c(=O)n(C)c2=O)cc1 | 0.65 | -0.63
c1ccc(CNCCc2ccc3c(c2)OCO3)nc1 | 3.1 | -1.2
c1cc2c(cc1CN1CCNCC1)OCO2 | 0.88 | 1.3
COc1ccc(-n2c(C)nc3cc(C(=O)N4CCC5(CC4)OCCO5)ccc32)cc1 | 1.3 | -0.01
CCCCCCn1c(=O)c(C(=O)Nc2ncccc2O)c(O)c2ccccc21 | 0.17 | -0.8

The list continues.
SMILES | KCNQ2 pot | KCNQ2 pot baseline
Cc1cc(C)nc(/N=C(\N)c2c(O)[nH]c(=O)[nH]c2=O)n1 | 0.5 | 0.04
CCCCN1C(=O)/C(=C/c2ccc(N(C)C)cc2)C(=O)N(Cc2ccco2)C1=O | 2.5 | -0.78
CCC(=NCCc1ccccc1)c1c(O)n(C)c(=O)n(C)c1=O | 1.6 | -0.06
COc1ccc(CC(=O)N2CCN(C)CC2)cc1OC | 1.7 | -1.3
c1cc(CNCCc2ccc3c(c2)OCO3)ccn1 | 0.92 | 0.85
O=C(c1ccc(F)c([N+](=O)[O-])c1)N1CC2CC(C1)c1cccc(=O)n1C2 (stereo not given) | 0.15 | -1.7
CCCC(=O)OCC[N+](C)(C)C | 0.63 | -1.3
CC(C)CCCn1c(O)c(/C=C2/C=CC=N2)c(=O)[nH]c1=O | 0.53 | -0.68
CC(C)(C)NS(=O)(=O)c1ccc(OCC(=O)N2CCN(Cc3ccccc3)CC2)cc1 | 0.3 | -1.6
CN(C)c1ccc(/C=C/C=C/c2sc3ccccc3[n+]2C)cc1 | 0.07 | -1.5
